ALR inh: human ALR oxidase inhibition via reduced H2O2; P55789; AID 485317; 290,000 compounds, 3.8% hits; purified ALR, DTT oxidation, H2O2 HRP-luminol luminescence; inhibition, % (test concentration not listed);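 active means mean and each replicate at 75% or more; inconclusive means only one of the two met; inactive means neither met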;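 further: stock transfer was 7.5 nL into about 7.5 µL; 0% = neutral wells and 100% = wells with inactivated enzyme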
Target sequence (P55789 whole entry, looked up): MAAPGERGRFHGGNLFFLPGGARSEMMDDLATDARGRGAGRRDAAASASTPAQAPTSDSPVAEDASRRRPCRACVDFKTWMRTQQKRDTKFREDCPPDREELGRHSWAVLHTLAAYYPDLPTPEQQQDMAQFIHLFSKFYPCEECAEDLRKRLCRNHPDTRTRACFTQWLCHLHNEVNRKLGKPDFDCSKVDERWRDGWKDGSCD
RanGTP-Impb inh: disruptors of Ran-importin-beta complex formation – biochemical, FRET, CFP-Ran, YFP-importin-beta, homogeneous, primary screen; cell-free CFP-Ran/YFP-importin-beta FRET ratio; inhibition, % (test concentration not listed); 300,000 compounds, 1.1% hits; AID 2216;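 active means most replicates above 15%; inconclusive means exactly half above 15%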;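 further: 0% = DMSO wells and 100% = Ran loaded with GDP instead of GTP; wells of about 40 µL received 100 nL stock; the first replicate is given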
Calb FLC: affects C. albicans growth with fluconazole; C. albicans CaCi-2 (fluconazole-resistant clinical isolate) + fluconazole, Alamar Blue growth, 48 h; growth inhibition, % (test concentration not listed); 300,000 compounds, 0.57% hits; AID 1979;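 active means most replicates above 75%; inconclusive means exactly half above 75%; inactive means most below 75%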;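 further: all wells also contain fluconazole at 8 µg/ml as a sub-toxic cotreatment; 0% = median of DMSO wells and 100% = median of geldanamycin control wells; wells of about 8 µL received 7.5 nL stock; the first replicate is given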
Beta2AR agonist: human beta-2 adrenergic receptor agonism by FAP; P07550; Am2.2-beta2AR cells, FAP receptor internalization, flow cytometry; reference of the scale not given here; response, % (test concentration not listed); 340,000 compounds, 0.43% hits;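 active means response above a set limit, near 3 SD of response in nonfluorescent compounds, cut at about 42% in these data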;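 further: stock transfer was 100 nL into about 11 µL; a reference agonist was the positive control; negative values mostly stem from fluorescent compounds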
Target sequence (P07550 whole entry, looked up): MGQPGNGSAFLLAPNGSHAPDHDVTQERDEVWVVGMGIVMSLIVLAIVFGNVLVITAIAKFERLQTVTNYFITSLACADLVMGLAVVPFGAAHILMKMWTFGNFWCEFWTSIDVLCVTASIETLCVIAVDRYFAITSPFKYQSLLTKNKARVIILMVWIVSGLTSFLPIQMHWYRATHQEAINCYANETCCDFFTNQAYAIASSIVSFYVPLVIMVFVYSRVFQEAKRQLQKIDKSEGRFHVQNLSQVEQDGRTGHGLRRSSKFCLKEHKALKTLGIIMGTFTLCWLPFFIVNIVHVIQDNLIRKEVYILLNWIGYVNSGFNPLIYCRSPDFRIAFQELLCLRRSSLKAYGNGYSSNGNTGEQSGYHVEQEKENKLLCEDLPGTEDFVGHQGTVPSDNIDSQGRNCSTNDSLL
Vif TR-FRET: HIV-1 Vif–A3G interaction blockers – biochemical, TR-FRET, GST-Vif 1-94, biotin-A3G peptide, dose response retest, primary screen (AID 1117319); inhibition, %; hits with a dose series show IC50 in µM; 260,000 compounds, 0.57% hits; TR-FRET GST-Vif / biotin-A3G peptide binding; higher % means a stronger effect; test concentration not given here; strong numbers were not always called active;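 active means above the screen mean plus three standard deviations and confirmed in dose response; inconclusive means results disagree or hit not tested in dose response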;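 further: Vif residues 1-94 fused to GST binding biotinylated APOBEC3G peptide 110-148; 0% = full assay without inhibitor and 100% = GST in place of GST-Vif; retest series ran down from 100 µM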
HNF4A DNA FP: change in binding of human HNF4 alpha to DNA. P41235. HNF4a-FITC DNA binding, fluorescence polarization, 1 h. activity change, % at 10 µM. 360,000 compounds, 0.3% hits; in the data active means activity change above about 30%, passing the limit was not always enough;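 further: controls were the assay level and a saturating level of protein; the project sought stronger binding though the title names inhibitors; some compounds called inactive have numbers as strong as hits; positive values seem to mean higher polarization but the record does not say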
Target sequence (P41235 whole entry, looked up): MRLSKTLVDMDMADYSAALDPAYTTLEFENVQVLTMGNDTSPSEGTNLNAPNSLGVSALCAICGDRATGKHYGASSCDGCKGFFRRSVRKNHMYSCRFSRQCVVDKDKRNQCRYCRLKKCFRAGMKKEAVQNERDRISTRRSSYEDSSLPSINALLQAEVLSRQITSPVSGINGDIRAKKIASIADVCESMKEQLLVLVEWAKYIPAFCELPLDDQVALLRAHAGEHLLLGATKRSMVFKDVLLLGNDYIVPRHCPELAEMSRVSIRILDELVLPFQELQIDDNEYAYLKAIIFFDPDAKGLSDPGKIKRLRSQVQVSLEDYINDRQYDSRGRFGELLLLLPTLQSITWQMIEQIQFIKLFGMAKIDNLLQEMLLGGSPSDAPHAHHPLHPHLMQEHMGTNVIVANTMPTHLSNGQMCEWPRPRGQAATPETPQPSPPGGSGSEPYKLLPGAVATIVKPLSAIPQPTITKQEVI
LANA-H2B inh: blocks KSHV LANA binding to histone H2A/H2B; cell-free LANA-H2A/H2B peptide, fluorescence polarization; inhibition, % (concentration not given with the values); 320,000 compounds, 0.6% hits; in the data active means inhibition mostly above about 10%, no sharp cut-off; inactive means mostly below about 6.7%;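 further: stock transfer was 7.5 nL into about 10 µL; 0% = median of vehicle wells and 100% = median of positive control wells; one replicate is shown; the record names a cut of 25% in any replicate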
Numbers without * were called inactive; u = inconclusive; x = no result given; + = active, no number.

Second line of a record: HNF4A DNA FP	Calb FLC	RanGTP-Impb inh	Vif TR-FRET	LANA-H2B inh	Beta2AR agonist	ALR inh
COc1cc(Br)cc(CN2CCN(c3ncccn3)CC2)c1O
    -2.1	0	-0.2	x	3.0	-6	98*
CCN(C[C@H]1N[C@@](Cc2ccccc2)(C(=O)OC)[C@H]2C(=O)N(Cc3ccccc3)C(=O)[C@@H]12)S(=O)(=O)c1ccc(OC(F)(F)F)cc1
    -0.7	x	x	1%	+	5	2
COc1ccc(NC(=O)COC(=O)c2ccc(OCc3ccc(Cl)cc3Cl)c(OC)c2)c(OC)c1
    -0.1	-1	-3.0	x	1.6	-3	-16
O=C(O)c1cc2ncc(CCO)cn2n1
    -4.0	1	-2.1	3%	1.5	8	-3
COc1cc(OC)cc(-c2cc3nc(C)c(CCC(=O)Nc4nc(C)cs4)c(C)n3n2)c1
    1.0	3	-1.3	3%	3.3	6	x
CC(C)(C)OC(=O)C[C@@H]1C/C=C\C[C@H](CC(=O)N[C@@H](CO)Cc2ccccc2)C(=O)N[C@H](C(C)(C)C)COC1=O
    2.1	x	x	x	3.3	-1	1
CN(C(=O)CC1C(=O)NCCN1Cc1ccc(F)cc1)C1CCOCC1 (stereo not given)
    4.4	-18	0.5	4%	1.5	-5	-11
CCC(c1nnc(SCC(=O)Nc2c(F)cccc2F)n1Cc1ccccc1)N(C)C (stereo not given)
    -1.8	-12	-1.0	2%	0.9	0	-8
O=C(c1ccc2ncsc2c1)N1CCN(c2nc3ccccc3s2)CC1
    -0.8	-5	1.5	x	-0.4	22	-8
CCC(=O)n1nc(-c2ccc(OC)cc2)nc1NCc1cccs1
    -1.6	5	1.6	-9%	x	-3	x
CC(C)NC(=O)Nc1ccc2c(c1)C(=O)N([C@H](C)CO)C[C@H](C)[C@@H](CN(C)S(=O)(=O)c1cccs1)O2
    1.6	x	x	x	5.5	-3	-1
O=C(CCC(=O)c1cccs1)Nc1nnc(C2CC2)s1
    0.5	3	-0.3	1%	3.8	-5	-4
Brc1ccc(CSc2nccn2-c2ccccc2)cc1
    -5.7	-4	1.2	3%	1.1	-9	-8
CC(=O)Nc1ccc(S(=O)(=O)Nc2ccccc2C(=O)NCc2cccnc2)cc1
    -0.1	16	-0.7	x	6.9	0	4
COC(=O)c1cc(S(=O)(=O)NCc2cccs2)c[nH]1
    1.2	-2	0.1	x	-0.6	1	0
Cn1cccc1C(=O)Nc1ccc(Cl)c(S(=O)(=O)N2CCCCC2)c1
    3.5	x	x	x	4.0	5	-7
COc1ccc(NC(=O)CSCC(=O)N(C)Cc2ccc3c(c2)OCCO3)cc1
    -1.1	x	x	-2%	4.9	0	-11
COc1cc(CNS(=O)(=O)CCl)cc(OC)c1OC
    0.6	x	x	x	-2.8	-5	-2
CC(C)C[C@H](NC(=O)N1CCn2c1nc1ccccc12)C(=O)NCCc1ccccc1
    7.3	-8	0.4	x	6.7	-1	-64
CC(C)CC1=NC(C(F)(F)F)(C(F)(F)F)c2c(n(CC(C)C)c(=O)[nH]c2=O)N1
    -1.2	10	5.4	15%	-0.6	2	-24
Cc1ccc(C(=O)NNc2nc3ccccc3nc2C(F)(F)F)cc1
    -0.2	-4	3.4	-2%	-6.6	3	71
O=C(CSc1nnnn1-c1ccccc1F)Nc1nc2ccccc2s1
    4.0	-9	1.4	-10%	2.1	2	-4
Cc1ccc(-n2nc(C)c3c2C(Br)C(C)(C)CC3=O)nc1 (stereo not given)
    0.1	x	x	8%	x	0	x
Cc1cccc(NS(=O)(=O)c2cccc(C(=O)NCC3(N4CCCCC4)CCCCC3)c2)c1
    0.3	2	2.1	2%	6.5	1	-9
Cc1c(NS(=O)(=O)c2ccc(Cl)c(C(=O)OCC(=O)NCc3ccco3)c2)c(=O)n(-c2ccccc2)n1C
    -0.4	2	u	x	-4.0	6	x
COC(=O)c1ccc(Oc2coc3cc(OCc4ccc([N+](=O)[O-])cc4)ccc3c2=O)cc1
    0.7	-12	3.6	x	1.7	8	-4
O=c1c2ccccc2c(=O)n(Cc2ccccc2)n1Cc1ccccc1
    4.5	0	-1.9	x	1.2	-8	-7
Cc1ccc(S(=O)(=O)N2[C@@H](c3ccccc3F)C(C(=O)O)=CC[C@H]2c2ccc(C(C)C)cc2)cc1
    -5.1	x	x	x	2.0	-11	4
CC(CCc1ccccc1)NC(=O)/C=C/c1ccc(F)cc1 (stereo not given)
    x	10	1.2	u	8.5	x	0
COc1ccccc1C(=O)Nc1ccnn1C1CCN(Cc2cn(C)c3ccccc23)CC1
    -3.2	9	u	x	2.9	2	-2
C=CCn1c(CSc2nc3ccccc3s2)n[nH]c1=S
    -4.2	-1	0.6	3%	-5.1	6	20
O=C1COc2ccc(C(=O)COC(=O)c3sc4ccccc4c3Cl)cc2N1
    -1.2	-5	-3.0	-8%	6.3	4	-11
O=C(O)C1C2C=CC(C2)C1C(=O)NCc1ccc(Cl)c(Cl)c1 (stereo not given)
    2.2	27	6.1	-8%	0.4	2	-6
N#Cc1cn(CCOC(=O)c2cccc(C(F)(F)F)c2)c(=O)[nH]c1=O
    -6.3	23	0.4	u	-1.8	12	-7
O=C(COC(=O)c1cc(Cl)ccc1O)Nc1ccccc1C(=O)NC1CC1
    14	x	x	x	-4.9	13	0
C=Cn1cc[n+](CC(=O)c2ccc(C)cc2)c1
    3.7	-12	-0.5	13%	-0.3	0	2
Cc1cc(C)cc(N(CCC#N)C(=O)COC(=O)CNC(=O)c2sc3ccccc3c2Cl)c1
    -3.5	-6	3.4	-9%	-2.2	-1	-14
Cc1ccc(C(=O)NCC(=O)N2CCCCCCC2)cc1
    1.1	x	x	-11%	-0.8	1	6
Nc1nnc(SCC(=O)Nc2nnc(-c3ccccc3)o2)s1
    3.5	x	x	x	-1.6	-5	0
CC1=C(Sc2nc3ccccc3[nH]2)C(=O)NC(C)(C)C1
    -0.5	9	2.2	31%	-5.7	-6	x
N#C/C(=C\c1ccc(N2CCOCC2)o1)C(=O)NC1CCCCC1
    166	-2	31*	-4%	-20	3	79*
CC/C(=N\NC(=O)c1cccnc1)c1ccc2c(c1)OCCO2
    -3.8	2	-2.0	16%	7.6	-6	-3
O=C(COC(=O)c1cccc(S(=O)(=O)Nc2ccc(F)cc2)c1)NCCN1C(=O)CSC1=O
    -2.2	12	6.6	-7%	3.8	17	-3
CN(C(=O)c1ccc(NC(=O)Cc2ccc(NC(=O)C3CCN(C(=O)C4CCCC4)CC3)cc2)cc1)C1CCCC1
    2.5	x	x	16%	x	-1	x
O=C(N1CCOCC1)N1c2ccccc2CC(N2CCOCC2)c2ccccc21 (stereo not given)
    -2.5	x	x	1%	0.0	9	4
COc1cc(C(=O)Nn2cnnc2)ccc1OC(F)F
    -0.8	-3	-0.9	-3%	2.7	0	1
CCN(CC)C(=O)CSc1nnc(SCc2ccc(Cl)cc2)s1
    -1.4	5	-1.1	-4%	-3.3	3	-3
COc1ccc(-n2nc(C(=O)NCC(=O)NCCCN3CCC(C)CC3)c3ccccc3c2=O)cc1Cl
    1.9	-10	-3.5	x	-0.3	3	-10
O=C(CCc1nnc2n(Cc3ccc(Cl)cc3)c(=O)c3ccccc3n12)NCCN1CCCC1
    0.1	0	3.1	x	1.3	-12	-12
Cc1ccc(S(=O)(=O)Nc2ccc(S(=O)(=O)Nc3cc(C)nc(C)n3)cc2)cc1
    1.1	-4	x	u	-4.4	1	-6
CN1CCN(c2ccc(NC(=O)c3cc(S(N)(=O)=O)ccc3N3CCOCC3)cc2)CC1
    7.6	x	x	29%	4.0	-6	35
CCN(Cc1ccccc1)C(=O)Cc1ccc(OC)c(S(=O)(=O)N2CCOCC2)c1
    -2.0	-9	-0.5	-7%	-1.6	-5	-3
CNC(=O)Nc1ccc2nc(C)oc2c1
    1.2	3	-1.1	x	-5.8	-2	-4
O=C(Nc1cccc(Br)c1)/C(=C\c1cccnc1)NC(=O)c1ccco1
    3.2	-10	1.3	0%	0.1	11	-3
O=c1c2c(n3nnnc3n1-c1ccccc1)-c1ccccc1CC21CCCC1
    1.1	-10	u	6%	-8.3	-16	-17
O=c1c2c(ncn2C2CCCC2)n(Cc2ccccc2)c(=O)n1CCOc1ccccc1
    -2.3	4	1.6	2%	3.5	-8	8
CC1CN(C(=O)c2ccc(Oc3ccccc3)cc2)CC(C)O1 (stereo not given)
    6.7	-4	3.2	-9%	0.6	0	0
C=CCNC(=S)N/N=C/c1cn(-c2ccccc2)nc1-c1ccc(OC)cc1
    0.8	28	3.5	19%	6.0	-18	-21
CCOC(=O)c1c(NC(=O)CSc2ncn[nH]2)sc(C)c1C
    -1.1	4	1.6	-6%	2.6	-13	x
COc1ccc([C@H]2CC(=O)C=C(/C=C/Cc3ccccc3)C2)cc1
    2.3	x	x	x	0.0	1	-2

New compounds follow.
Second line of a record: HNF4A DNA FP	Calb FLC	RanGTP-Impb inh	Vif TR-FRET	LANA-H2B inh	Beta2AR agonist	ALR inh
COc1ccc(OC)c(-c2csc(NC(=O)Cc3ccccc3OC)n2)c1
    5.4	4	1.5	0%	-9.8	5	x
COc1ccc(C(C(=O)NC(C)(C)C)N(Cc2ccco2)C(=O)CCC(=O)Nc2cc(C)on2)cc1 (stereo not given)
    4.8	10	1.3	3%	-1.9	1	1
COC(=O)Cn1c(CN2CCN(c3ccc(F)cc3)CC2)nc2c1c(=O)n(C)c(=O)n2C
    0.9	0	2.3	-3%	-4.7	9	67
Cc1cc(C)c(C)c(S(=O)(=O)N2CCN(C(=O)CNC(=O)c3ccco3)CC2)c1C
    -0.8	x	x	x	-2.1	-2	-4
O=C1CCc2cc(S(=O)(=O)N3CCN(Cc4ccc5c(c4)OCO5)CC3)ccc2N1
    1.9	1	-0.8	1%	0.5	-1	x
CC1=Nc2ccccc2N=C(NC(=O)CN2CCN(c3ccc(F)cc3)CC2)C1c1ccccc1 (stereo not given)
    0.8	-8	-1.2	14%	-1.8	11	x
Cc1ccccc1Cn1cccc1/C=C1/C(=N)N2C=CSC2=NC1=O
    5.0	3	-47	4%	2.9	-2	x
CN(C)CCN(C(=O)c1ccc(S(=O)(=O)N(C)c2ccccc2)cc1)c1nc2cc3c(cc2s1)OCCO3
    1.1	23	-2.2	2%	3.6	13	-4
COc1ccc(C2SCC(C(=O)NCc3ccc(F)cc3)N2C(C)=O)cc1 (stereo not given)
    2.1	1	2.1	66%	3.6	5	-56
O=C(Nc1ccccc1[N+](=O)[O-])c1nc[nH]c1C(=O)NCCO
    5.6	3	-0.9	1%	9.2	2	-3
CC(=O)NCCCc1c[nH]c2ccc(Cl)cc12
    1.2	9	5.5	1%	2.8	2	98*
COc1ccc(-c2nc(Cn3c(SCc4ccc(F)cc4)nc4ccncc43)c(C)o2)cc1OC
    2.3	0	1.0	-10%	-0.7	5	x
CN(C(=O)CSc1nnnn1-c1ccc(Cl)cc1)C1CCS(=O)(=O)C1 (stereo not given)
    2.0	x	x	x	-3.4	5	-3
CCn1c(O)c(/C=N/NC(=O)c2ccncc2)c(=O)n(CC)c1=S
    78*	44	2.3	x	x	0	x
Cc1cc(=O)c2cc(Cl)ccc2[nH]1
    -2.2	-3	3.4	0%	-2.9	-5	-4
CCCc1c(C)nc2ccccc2c1SCCC#N
    -4.3	4	-1.2	0%	-7.9	4	-1
Cc1cc(OCC(F)(F)C(F)(F)C(F)(F)C(F)F)nc(N)n1
    3.2	1	u	-11%	-2.3	-3	-2
COC(=O)c1ccc(OCC2NCCc3cc(OC)c(OC)cc32)cc1 (stereo not given)
    -3.8	-5	4.0	x	4.4	-4	-22
O=C(Nc1cc(S(=O)(=O)N2CCOCC2)ccc1N1CCCC1)c1cnccn1
    -2.0	-3	-1.8	-9%	-2.3	-4	0
C/C(CC(=O)Nc1ccccn1)=N\NC(=O)c1ccccc1O
    -9.6	u	2.1	x	-4.6	-1	7

The order is random; 6.3% or so of the library scored in one or more.
